HPGD inh – HPGD (human) dehydrogenase inhibition; purified HPGD, NADH fluorescence kinetic, PGE2 substrate; Potency, µM, for inactives: at the top dose activity change, negative = inhibition, most hits filed as inhibitors; AID 894; 4.3% of 150,000 active; P15428; active = well fitted inhibition curve with a large enough effect (not every such curve was filed as active); inconclusive = small, poorly fitted or top-dose-only effect, or another doubt; inactive = no such curve, though single readings can be large or run the other way;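 note: top concentration of the series not given in the record; plate controls included wells without enzyme; inactives centre near -10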
Target sequence (P15428 whole entry, looked up): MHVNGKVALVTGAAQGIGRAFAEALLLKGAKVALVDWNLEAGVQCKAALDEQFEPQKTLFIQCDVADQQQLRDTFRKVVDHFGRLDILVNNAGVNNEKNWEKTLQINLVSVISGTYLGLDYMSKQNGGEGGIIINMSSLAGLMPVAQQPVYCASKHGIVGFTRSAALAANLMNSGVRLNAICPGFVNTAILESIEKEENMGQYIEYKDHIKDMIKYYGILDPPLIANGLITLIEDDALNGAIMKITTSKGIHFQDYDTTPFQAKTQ
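20 nM HPGD preincubated 15 min at room temperature with compound in 50 mM Tris-HCl pH 8, 0.01% Tween 20. Started with 1 mM NAD+ and 30 uM prostaglandin E2; NADH fluorescence (360/450 nm) read 5 times over 30-s intervals, last minus first.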
Active calls of the source: *; ? = inconclusive; & = joins results of further samples. % is set by controls: 0 for no effect and ±100 for the full control effect; potency is the fitted concentration of half-maximal effect.

SMILES	HPGD inh
CCOc1ccc(N2C(=O)CC(NC3CCCCNC3=O)C2=O)cc1 (centres undefined)	-3%
COCCCn1c(C)csc1=Nc1cccnc1	-15%
CCOC(=O)c1cnc2nc[nH]n2c1=O	-17%
CC(C)c1ccc(NC(=S)NCc2cccs2)cc1	?
C=CCNCc1cccn1-c1sc2c(c1C#N)CCCC2	4%
Cc1ccc(C(=O)c2ccccc2C(=O)OCC(=O)NCCc2ccc(Cl)cc2Cl)cc1	1%
Cc1cc(N2C(=O)C(=O)/C(=C(/O)c3ccccc3)C2c2cccs2)no1 (centres undefined)	-1%
Cc1ccc2c(c1)-c1c(cnn1CC(=O)N1CCCN(Cc3ccccc3F)C1)CO2	1%
O=C(CSc1nnc(-c2ccco2)o1)N1CCOCC1	-9%
O=C1CCCc2c1[nH]c1ccc(Cl)cc21	-11%
Cc1ccc(S(=O)(=O)NCCNC(=O)N2CCOCC2)cc1	-8%
CCN(CCCNC(=O)c1[nH]c(C)c(C(C)=O)c1C)c1cccc(C)c1	-4%
Cc1ccc(C(=O)Nc2cccc([N+](=O)[O-])c2)cc1S(=O)(=O)Nc1ccc(NC(=O)c2ccccc2)cc1	-12%
CCCn1c(C)nc2c(NCc3ccccc3)nc(C)nc21	-11%
NC(=O)Nc1ccc(C(=O)OCC(=O)Nc2ccc([N+](=O)[O-])cc2C(F)(F)F)cc1	-16%
COCc1nnc(NC(=O)c2cc(OC)c(OC)cc2[N+](=O)[O-])s1	-10%
O=C(CSc1ccc(Cl)cc1)Nc1cccc(NC(=O)c2ccco2)c1	-27%
O=C(O)c1cccc(S(=O)(=O)N2CCOCC2)c1	3%
O=C(OCc1ccc(Br)cc1)c1cccc(-c2nnc(-c3ccccc3)o2)c1	?
Cc1nn2c(c1-c1ccccc1)NC1=C(C(=O)CCC1)C2c1ccccc1 (centres undefined)	?
CCOc1ccc(CNC(=O)c2ccc(Sc3ccc(C)cc3)c(NC(C)=O)c2)cc1OC	?
CCCn1cc(SCC(=O)NCc2ccc3c(c2)OCO3)c2ccccc21	-13%
COC(=O)CCCC1=CC2=C(c3ccccc3)C(=O)C(C)(OC(=O)C3CCCC3)C(=O)C2=CN1c1ccc(OC)cc1 (centres undefined)	-4%
Cc1nc2c(=O)oc3ccccc3c2n1-c1ccccc1	-3%
CCCCC1(C)Nc2ccccc2-c2nc3ccccc3n21 (centres undefined)	?
More structures
SMILES	HPGD inh
c1ccc(-c2nc(N3CCOCC3)c3ccccc3n2)nc1	-11%
CCCCCCCCCCOCCC(=O)O	-3%
COc1ccc(CN(C(=O)Cc2cccs2)C(C(=O)NC2CCCC2)c2ccncc2)cc1 (centres undefined)	-10%
CCOP(=O)(OCC)C(Nc1ccccn1)c1ccccc1 (centres undefined)	-5%
CN(C)/N=C/c1cc(Cl)cc([N+](=O)[O-])c1O	-19%
C/C(=N\NC(=O)c1ccc(CSc2nncn2C)cc1)c1ccc(Cl)cc1	-13%
CCOc1ccc(C(=S)NC2CCCCC2)cc1OC	20µM*
O=C(NN1CCOCC1)c1cc(-c2cccc(Cl)c2)nc2ccccc12	-7%
Cc1ccc(CN=c2c([N+](=O)[O-])nn(-c3ccc4c(c3)OCCO4)n2O)cc1	?
CC1(C)CC(=O)N(CC(=O)NC2CCCC2)c2ccccc2S1(=O)=O	-9%
S=C(NCc1ccco1)N/N=C/c1ccccc1Cl	-15%
COc1ccc(NC(=O)N2CCC3(CC2)CCN(C(=O)c2csnn2)CC3)cc1	0%
Cn1cc(/C=N/NC(=O)COc2ccccc2[N+](=O)[O-])c2ccccc21	-8%
COC(=O)c1cccc(NC(=O)NC23CC4CC(CC(C4)C2)C3)c1	?
CC(C)c1ccc(S(=O)(=O)c2cc3cc(Br)ccc3oc2=O)cc1	-7%
C=CCN1C(=O)CN=C1Nc1ccc(OC)cc1OC	-2%
CCOc1cc(-c2nc(-c3ccccc3OC)no2)cc(OCC)c1OCC	?
CN(C)CCCN1c2ccccc2CCc2ccc(Cl)cc21	-4%&5%&-1%&-4%&4%
Cc1ccc(N(CC(=O)NCCSCc2ccco2)S(C)(=O)=O)cc1	-9%
CCC(C)c1ccccc1NC(=O)CN1CCN(C/C=C/c2ccccc2)CC1 (centres undefined)	-9%
COC(=O)CSc1cc(C(=O)c2nccn2C)c2ccccc2n1	-5%
C=CCNC(=S)NNC(=O)CSc1nc2ccccc2s1	-30%
COCCn1c(SCC#N)nnc1-c1ccccc1	-7%
CCOC(=O)c1c(NC(=O)COC(=O)c2nc(Cl)ccc2Cl)sc2c1CCC2	-14%
Cc1ccc2nc3nc(NCC4CCCO4)c(C(=O)NC4CCCC4)cc3c(=O)n2c1 (centres undefined)	?

A stretch from the list above:
SMILES	HPGD inh
CCC(C)c1ccccc1NC(=O)CN1CCN(C/C=C/c2ccccc2)CC1 (centres undefined)	-9%
COC(=O)CSc1cc(C(=O)c2nccn2C)c2ccccc2n1	-5%
C=CCNC(=S)NNC(=O)CSc1nc2ccccc2s1	-30%
COCCn1c(SCC#N)nnc1-c1ccccc1	-7%
CCOC(=O)c1c(NC(=O)COC(=O)c2nc(Cl)ccc2Cl)sc2c1CCC2	-14%
Cc1ccc2nc3nc(NCC4CCCO4)c(C(=O)NC4CCCC4)cc3c(=O)n2c1 (centres undefined)	?

(more compounds)
SMILES	HPGD inh
CCN(CC)Cc1c(O)c(Cl)cc2c3c(c(=O)oc12)CCCC3	?
O=C(O)c1ccc(NS(=O)(=O)c2ccc(Cl)c(Cl)c2)cc1O	-4%
Cc1nn(-c2ccccc2)c2c1P(=O)(O)/C(=C1\N(C)c3ccccc3C1(C)C)C=N2	-20%
c1ccc(C2Nc3ccccc3-c3nc4ccccc4n32)cc1 (centres undefined)	?
CCOC(=O)c1sc(NC(=O)CSc2nncs2)c(C(=O)OCC)c1C	28µM*
CC(NC(=O)COC(=O)CCc1ccccc1)c1ccccc1 (centres undefined)	-11%
CCCCCC(=O)NNC(=O)c1ccc(-c2ccccc2)cc1	-12%
COc1ccc(CNC(=O)CN(CCC(C)C)S(=O)(=O)c2ccc3c(c2)OCCO3)cc1	-12%
O=C(O)CCc1ccc(-c2cccs2)n1NC(=O)c1ccc(Cl)cc1Cl	-12%
CC(CNc1ccc([N+](=O)[O-])cc1)NC(=O)c1ccccc1Br (centres undefined)	-12%
CC1=CC(C)(C)N2C(=O)C3(C(C#N)=C(N)Oc4cc(O)ccc43)c3cccc1c32 (centres undefined)	-16%
Cc1cccc(C(=O)NC(=S)Nc2ccc(S(=O)(=O)N3CCCCC3)cc2)c1	-10%
NC(=O)N[C@H]1NC(=O)NC1=O	-4%
COc1ccc(C2CC(c3ccccc3)=NN2C(=O)COC(=O)CNC(=O)c2ccccc2)cc1 (centres undefined)	-16%
O=C(Nc1cccc(C(=O)N2CCCC2)c1)c1ccccc1	-14%
CN(Cc1cccs1)C(=O)CSc1nnnn1C	-1%
CCCOc1ccc(/C=N/NC(=O)CSCc2ccc([N+](=O)[O-])cc2)cc1OCC	-16%
Cc1ccc2cc(CN(Cc3ccc4c(c3)OCO4)Cc3nnnn3Cc3ccco3)c(=O)[nH]c2c1C	-24%
O=C(NCC(=O)N(Cc1ccc(F)cc1)C(C(=O)NC1CCCC1)c1ccco1)c1ccco1 (centres undefined)	-1%
CCCNC(=O)C(Sc1ccccc1)c1ccccc1 (centres undefined)	-3%
Cc1cccc(C)c1NC(=O)CSc1nnc(-c2ccoc2C)n1CCc1ccccc1	0%
CCCC(CCC)C(=O)NNc1cc(=O)c2c(=O)n(C)c(=O)n(C)c2[nH]1	-7%
COc1ccccc1OCC(=O)Nc1oc(-c2ccccc2)c(-c2ccccc2)c1C#N	-18%
CCOC(=O)C1=C(C)NC2=C(C(=O)c3ccccc32)C1c1cccnc1 (centres undefined)	-16%
COc1ccc(-c2cn3cccnc3n2)cc1NC(=O)C1CCCC1	-8%
(cont.)
SMILES	HPGD inh
COc1cccc(Nc2nnc(SCc3cc([N+](=O)[O-])cc4c3OCOC4)s2)c1	-25%
Cc1oc(-c2ccccc2Cl)nc1CSCC(=O)NC1CCCC1	-23%
Cc1ccn(CCSCC(=O)O)n1	-14%
Cc1cc(N2CCCN(C)CC2)nc2cc(Cl)ccc12	-12%
CCOc1cnn(-c2cc(Oc3ccc(C)cc3)ncn2)c(=O)c1Cl	-8%
CCOC(=O)C1CCN(C(=O)COc2cc(C)c(Br)c(C)c2)CC1	-2%
O=[N+]([O-])c1ccc2c(c1)C=C1CCCCC1(N1CCCCC1)O2 (centres undefined)	-10%
CCCn1c(C)cc(C(=O)COC(=O)c2c(C)nn(-c3ccccc3)c2C)c1C	-8%
Cc1ccc(CNC(=O)c2cn(C3CCCCC3)c(=O)c3c2c2ccccc2n3C)o1	?
O=C(CSc1nccc(=O)[nH]1)N1c2ccccc2CCc2ccccc21	-11%
CCOC(=O)CSc1nc(N(C)C)nc(N(C)C#N)n1	-5%
c1coc(CNc2ncnc3nc[nH]c23)c1	-7%&1%&-12%&-10%
O=C(CN1CCCc2ccccc21)N/N=C/c1ccc(O)cc1O	-11%
CN1CCN(NC(=O)c2cc(S(=O)(=O)N3CCOCC3)c(Cl)cc2Cl)CC1	-8%
O=C1CCCCCC1C1(O)C(=O)Nc2ccc(Br)cc21 (centres undefined)	-8%
CC(C)N(C(=O)CSc1nnc(NC(=O)c2cccs2)s1)C(C)C	-13%
CCOc1ccc(-c2nc(N)ncc2Oc2cccc(OC)c2)c(O)c1	-16%
CCCOc1ccc(C(=O)NNC(=S)NC(=O)c2cc(-c3ccccc3)nc3ccccc23)cc1	-9%
C=CCSC1=C(C#N)C(c2ccc(OCC)cc2)CC(=O)N1 (centres undefined)	-8%
Cc1onc(-c2ccccc2)c1C(=O)Nc1ccc2c(c1)OCO2	?
CCn1c(=O)cc(OCC(=O)NCCCN2CC(C)CC(C)C2)c2ccccc21 (centres undefined)	1%
COc1ccc(C2C(C(C)=O)=C(O)C(=O)N2CCN(C)C)cc1OC (centres undefined)	-3%
Cc1cc2n(n1)SC(Nc1cc(Cl)ccc1Cl)N2 (centres undefined)	-19%
Cc1cc([N+](=O)[O-])nn1CCCC(=O)N1CCN(c2ccccc2)CC1	-2%
C/C(Cl)=C/CN1C(=O)C2C3C=CC(C3)C2C1=O (centres undefined)	5%

Structural class, the entries above with a COOH group
SMILES	HPGD inh
O=C(O)c1cccc(S(=O)(=O)N2CCOCC2)c1	3%
CCCCCCCCCCOCCC(=O)O	-3%
O=C(O)c1ccc(NS(=O)(=O)c2ccc(Cl)c(Cl)c2)cc1O	-4%
O=C(O)CCc1ccc(-c2cccs2)n1NC(=O)c1ccc(Cl)cc1Cl	-12%
Cc1ccn(CCSCC(=O)O)n1	-14%

Other results follow.
SMILES	HPGD inh
Cc1cc(C)nc(SCc2ccc(C(=O)O)o2)n1	-6%
Cc1cc(C)c2c(N)c(C(=O)c3cccc(Cl)c3)sc2n1	-15%
Cc1ccc(C2=[N+]([O-])C3(CCCCC/C3=N\NC(N)=S)N(O)C2(C)C)o1 (centres undefined)	-3%
COCCCNC(=O)c1cccc(C(=O)NCCCOC)c1	-5%
Cc1cc(N2CCCC2)nc(SCC(=O)c2ccccc2)n1	-8%
COc1ccc(C(c2nnnn2CC2CCCO2)N2CCN(c3cccc(C)c3C)CC2)cc1 (centres undefined)	-5%
N#CC(C#N)=NNc1ccc(S(=O)(=O)N2CCCC2)cc1	-16%
CC(OC(=O)c1nsc(Cl)c1Cl)C(=O)NC(C)(C)C (centres undefined)	-17%
COCCNc1cc(-c2ccccc2C(F)(F)F)ncn1	-12%
CCNC(=O)c1ccccc1NC(=O)c1cccc(S(=O)(=O)N2CCOCC2)c1	-16%
CCOc1ccc(NC(=O)NC23CC4CC(CC(C4)C2)C3)cc1	-14%
Cc1nn(-c2ccccn2)c2c1C(c1ccsc1)C1=C(CCCC1=O)N2 (centres undefined)	?
CCCn1c(=O)c2[nH]c(C3CCCC3)nc2n(CCC)c1=O	4%&-7%&-13%&-2%
COC(=O)c1sc2ncccc2c1OCc1cccc(Cl)c1	?
CC1=C(C(=O)OCc2ccccc2)C(c2ccsc2)C(C#N)=C(N)O1 (centres undefined)	-29%
CCOC(=O)c1[nH]c(C)c(C(=O)OCCN2C(=O)c3ccccc3C2=O)c1C	-20%
COc1cc(/C=C/C(=O)OCC(=O)NC(=O)NC(C)C)ccc1OCC#N	?
Cc1nc(NCCc2ccccc2)c(C#N)c(C)c1[N+](=O)[O-]	-24%
C/C(=N\NC(=O)Nc1ccccc1)c1ccc2ccccc2c1	-5%
COCC(=O)N1CCC2(CC1)CN(c1ccncc1)C2	-5%
CN/C=C1\C(=O)C(C)(C)Oc2ccc3ccc(=O)oc3c21	-13%
CC(=O)C1=C(O)C(=O)N(Cc2ccco2)C1c1ccccc1 (centres undefined)	-28%
N#Cc1ccc(-c2nnnn2-c2ccc3c(c2)OCO3)cc1	-9%
Cc1nnc(SCC(=O)NCCOc2ccc(Cl)cc2)n1-c1ccccc1	-13%
Cc1ccc2c(C)nc(NC3=NCN(CCc4ccccc4)CN3)nc2c1	-6%
Further records follow:
SMILES	HPGD inh
COc1ccc(NC(=O)N2CCc3nc(COc4ccccc4)c4c(c3C2)CO[C@@H](C)C4)cc1	-5%
COC(=O)C1CCCN1S(=O)(=O)c1ccc2ccccc2c1 (centres undefined)	-19%
Cc1ccccc1NC(=O)c1c([N+](=O)[O-])c(C(C)(C)C)nn1C	-15%
COc1ccc(-c2c(NC(=O)C(C)C)n(C)c3ccccc3c2=O)cc1	?
Cc1cc[n+](CC(=O)c2cc3ccccc3oc2=O)cc1	?
Cc1cc(=O)[nH]c(SCC(=O)/C=C2\N(C)c3ccccc3C2(C)C)n1	-13%
COC(=O)COc1ccc(S(=O)(=O)NCc2ccco2)cc1Cl	-8%

Screens as filed in PubChem BioAssay.

These rows are one share of the data, so the mix of outcomes need not match the whole.
